Bead autofluor: flagged as autofluorescent in microsphere protease counterscreen | compound autofluorescence counterscreen, microsphere flow cytometry; active compounds read high | fluorescence intensity (concentration not given with the values) | 360,000 compounds, 3.1% hits;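 active = at least 3 SD above the mean of all compounds, about 16000 in these data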;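 also: 100 nL of 1 mM stock went into each well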
ugtP null kill: kills S. aureus RN4220 lacking UgtP | S. aureus RN4220 ugtP deletion, OD600 growth, 16 h; some inactives read as strong as hits | growth inhibition, % (test concentration not listed) | 330,000 compounds, 0.54% hits | AID 1259309;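 active = z-score under -3 and OD600 up to 0.15 on both plates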;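 also: plate controls were untreated wells for no effect and antibiotic for full effect; wells of about 80 µL received 100 nL stock; the first replicate is given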
Mtb hypoxia rep: Mtb hypoxia fluorescent reporter inhibition; M. tuberculosis hypoxia-regulated fluorescent reporter, fluorescence; fluorescence inhibition, % (concentration not given with the values); 300,000 compounds, 0.1% hits; AID 1159583;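 active = 35 to 45% if threefold the growth effect, above 45% if 1.5-fold the growth effect; inactive = the rest, general growth blockers included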;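 also: wells of about 50 µL received 100 nL stock; 0% = vehicle wells and 100% = reference inhibitor wells; whole bacteria with a GFP reporter of the hypoxia response; strong numbers were not always called active; many hits fall short of the cut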
Sa RN4220 lethal: S. aureus RN4220 growth inhibition; OD600, 16 h; inhibition, % (no concentration beside the values); 330,000 compounds, 0.33% hits;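 active = z-score of -3 or lower and OD600 up to 0.18 on both plates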;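 also: plate controls were untreated cells for no effect and reference antibiotic for full effect; stock transfer was 100 nL into about 80 µL; one replicate is shown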
PrP UTR inh: inhibition of PrP 5' UTR reporter expression. inhibition, % (no concentration beside the values). cell-based PrP 5' UTR mRNA reporter, plate reader. 340,000 compounds, 0.35% hits. AID 488862;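 active = every replicate at 50% or more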;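 also: 0 = median of the neutral control wells; tested in H4 reporter cells; numbers are from one replicate; inactives centre near -14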
BJeLR viability: BJeLR cell viability loss | BJeLR (HRASV12) viability, CellTiter-Glo ATP luminescence, 48 h; reference of the scale not given here | inhibition, % (concentration not given with the values) | 300,000 compounds, 0.17% hits;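 active = replicate mean above 50%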;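 also: 50 nL library stock added to about 25 µL; numbers are from one replicate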
Mtb hypoxia rep growth: recorded beside Mtb hypoxia rep, whose call it bears; growth inhibition, %; measured here: M. tuberculosis growth (absorbance);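 0% = vehicle and 100% = reference antibiotic; read after six days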
An asterisk follows results filed as active; · = no result given.

SMILES | Bead autofluor | ugtP null kill | Mtb hypoxia rep | Mtb hypoxia rep growth | Sa RN4220 lethal | PrP UTR inh | BJeLR viability
CC(C)C[C@H](NC(=O)c1[nH]cnc1C(=O)N[C@@H](Cc1ccccc1)C(=O)OC(C)(C)C)C(=O)OC(C)(C)C | 3602 | · | · | · | · | -18.0 | 5.3
Cc1ccc([C@@H]2[C@@H]3C(=O)N(C)C(=O)[C@@H]3[C@]3(C)C(=O)N(CC4CC4)CC(=O)N23)o1 | 3754 | · | · | · | · | -6.8 | 5.0
Cc1cc(C)n(CC(=O)NN=Cc2ccc3c(c2)OCO3)n1 | · | 11.0 | 15.8 | 9.2 | 3.3 | · | ·
COc1cccc(C(O)CC(N)=O)c1 (stereo unspecified) | 3491 | -3.7 | · | · | -3.0 | -3.0 | 2.2
CCOc1ccc(C(=O)C(C)OC(=O)Cn2cnc3c2c(=O)n(C)c(=O)n3C)cc1 (stereo unspecified) | 7180 | 5.5 | 2.5 | -2.0 | 2.0 | -7.4 | -7.8
Cc1ccc(C2=NN(C(=O)CNCCO)C(c3cccs3)C2)cc1 (stereo unspecified) | 4882 | -2.7 | 8.1 | 0.4 | 7.1 | -24.1 | 2.4
Cc1csc(NC(=O)c2ccc3c(c2)OCO3)n1 | 4444 | 13.8 | 4.5 | 11.1 | -1.5 | -81.2 | -3.5
CCCC(C)NC(=O)COC(=O)c1ccc2c(c1)C(=O)N(Cc1ccco1)C2=O (stereo unspecified) | 3366 | 4.9 | -2.5 | -6.3 | 3.3 | 7.8 | -7.8
CC(=O)Nc1nonc1-c1nc2ccccc2n1C | 2676 | 3.1 | 12.0 | -8.7 | -0.7 | -13.3 | -0.5
O=C1CNC(=O)/C(=C\c2ccccc2)N1 | 3989 | 9.9 | 16.1 | 1.6 | 6.6 | -12.5 | -8.4
O=C(NC(=S)Nc1cc(S(=O)(=O)N2CCOCC2)ccc1O)c1ccco1 | 3084 | -55.2 | 12.7 | 3.4 | 0.0 | -16.8 | 1.4
Cc1nc(C)c(-c2csc(Nc3ccc(O)c(C(=O)O)c3)n2)s1 | 3656 | 1.2 | 14.3 | 2.3 | 7.5 | -40.6 | -3.7
CCN1CCN(C(=O)c2ccc(OC3CCN(CCc4ccccc4)CC3)cc2)[C@@H](C)C1=O | 7848 | 1.3 | 15.2 | 6.8 | 0.1 | -11.6 | -13.9
CCN(c1ccccc1)S(=O)(=O)c1cccc(C(=O)OCC(=O)Nc2ccc(NC(C)=O)cc2)c1 | 6175 | 2.9 | 11.5 | 6.2 | 3.6 | -1.9 | ·
COc1ccc(C(=O)NNC(=O)Cc2ccc(-c3ccccc3)cc2)cc1OC | 4285 | -3.3 | 8.0 | 5.5 | -0.4 | -18.1 | -1.4
CCOc1ccc(OCC)c(NC(=O)c2nnn(CC(=O)Nc3cc(C)cc(C)c3)c2N)c1 | 5221 | 13.4 | -2.4 | -2.2 | -1.0 | -21.4 | 1.4
CCC(=O)c1ccc(OCC(=O)OCC(=O)N2CCc3ccccc3C2)cc1 | · | 2.1 | 10.0 | -3.6 | 3.4 | -17.9 | ·
O=C(NCCC(=O)N1CCC2(CC1)NCCc1[nH]cnc12)c1ccc(F)c(F)c1 | 4099 | 10.3 | 14.7 | -0.1 | 2.5 | -15.5 | 7.2
Fc1cccc(Nc2ncnc3c2cnn3-c2ccccc2)c1 | 4359 | 3.8 | 0.0 | 5.2 | 3.3 | -56.3 | 5.0
Cc1c(N2C(=O)C3C4C=CC(C4)C3C2=O)c(=O)n(-c2ccccc2)n1C (stereo unspecified) | 3898 | -2.2 | 4.9 | 7.3 | 0.9 | -3.7 | 1.8
CC(=O)N1c2ccc(S(=O)(=O)NCCC(=O)NC3CCCC(C)C3C)cc2CC1C (stereo unspecified) | 5411 | 0.5 | 0.4 | 13.6 | 0.7 | 3.6 | -6.8
CCOC1OC(C(=O)N2CCN(Cc3ccccc3)CC2)=CC(C)C1CCCO (stereo unspecified) | · | 2.1 | 12.0 | 16.1 | 2.4 | · | ·
O=c1c2ccccc2nc(SCCN2CCOCC2)n1CCc1ccccc1 | 4101 | -21.1 | -12.8 | -9.3 | -1.3 | -49.5 | -0.3
Cc1c(C(=O)Nc2ccc(Cc3ccncc3)cc2)cccc1[N+](=O)[O-] | 2662 | 5.9 | -1.7 | 7.1 | 1.2 | -8.5 | 3.5
CC12CN3CCN(C1)CC(C)(C3)C2=NO | 6333 | 4.6 | 5.2 | 0.8 | 3.5 | -12.8 | -16.9
(more compounds)
SMILES | Bead autofluor | ugtP null kill | Mtb hypoxia rep | Mtb hypoxia rep growth | Sa RN4220 lethal | PrP UTR inh | BJeLR viability
CCCCOC(=O)C1CN(c2ccccc2)N=C1C(=O)OCC (stereo unspecified) | 2456 | 1.6 | 9.3 | -3.1 | 9.3 | 3.6 | 9.9
CCC(=O)Nc1ccc(NC(=S)NC(=O)/C=C/c2ccco2)cc1 | 3935 | 79.8 | -8.1 | 3.0 | 0.8 | -3.3 | -10.6
Nc1c(C(=O)Nc2nccs2)sc2nc(-c3cccs3)cc(C(F)(F)F)c12 | 5256 | 14.3 | 3.5 | -4.7 | 22.1 | -7.7 | -3.1
Cc1ccc(NC(NC(=O)c2cccs2)C(Cl)(Cl)Cl)cc1 (stereo unspecified) | 2377 | -2.8 | -5.9 | 4.4 | -3.2 | -10.0 | 9.6
CCC(C)(C)NC(=O)C(c1ccccc1)N(C(=O)c1csnn1)C1CC1 (stereo unspecified) | 9240 | -5.8 | 7.0 | 10.6 | 0.9 | -14.3 | 5.4
Cc1cnc(NC(=O)CC(C)c2ccccc2)s1 (stereo unspecified) | 3969 | 14.9 | -0.9 | 9.9 | -4.6 | -31.2 | 25.4
COc1ccc([C@@H]2[C@@H]3C(=O)N(C(C)(C)C)C(=O)[C@@H]3[C@]3(C)C(=O)N(c4ccc(C(F)(F)F)cc4)C(=O)N23)cc1 | 3780 | · | · | · | · | -15.1 | -7.4
CN(Cc1ccccc1)C(=O)c1cccc(NC(=O)Cc2ccc(NC(=O)C3CCN(S(=O)(=O)c4cccc([N+](=O)[O-])c4)CC3)cc2)c1 | 3748 | 6.3 | -1.0 | 2.0 | 4.9 | -20.7 | ·
COc1cc(/C=C2\C(=O)NC(=O)N(c3ccccc3)C2=O)cc(OC)c1OC | 3146 | · | · | · | · | -2.8 | 0.4
COc1ccc(-c2nc(CS(=O)(=O)CC(=O)NCc3ccccc3OC)c(C)o2)cc1 | 4522 | 3.4 | 8.0 | -0.4 | 1.7 | -6.3 | 7.0
CCN=c1scc(C)n1N=Cc1cc(Br)c(O)c(Br)c1 | · | -1.4 | 3.2 | -0.2 | 8.1 | · | ·
CN(C)c1ccc(/C=C2\CCC/C(=C\c3ccccc3)C2=O)cc1 | 11563 | 50.1 | 5.5 | -4.0 | -1.5 | -23.6 | 4.8
O=C(Nc1c(F)cccc1F)c1ccc(-n2cncn2)nc1 | 2445 | -0.6 | 10.6 | 14.6 | -8.6 | -12.0 | -5.0
O=C(CNC(=O)c1ccccc1)NCc1nc2ccccc2[nH]1 | 6004 | 1.4 | 10.8 | -1.5 | -1.1 | -5.5 | -8.6
CCN(CC)CCCNC(=O)Cn1cnc2sc(C)c(S(=O)(=O)N3CCN(c4ncccn4)CC3)c2c1=O | 4130 | 5.1 | -8.2 | 1.5 | 2.5 | -22.5 | -4.2
Cn1cnnc1SCC(=O)Nc1ccc(Oc2ccccc2)cc1 | 5663 | 13.8 | 5.3 | 1.0 | -2.9 | -16.0 | -9.7
COc1ccc2nc(NC(=O)c3ccccc3F)sc2c1 | 3835 | 4.9 | 9.2 | 1.0 | 2.4 | -29.8 | 4.0
CCCCn1c(N)c(N(CCOC)C(=O)CCNC(=O)c2ccc(Br)cc2)c(=O)[nH]c1=O | 5369 | 7.4 | -3.3 | 0.5 | -0.1 | -12.0 | -6.2
COc1ccccc1CCC(=O)Nc1ccc(OC)c(S(=O)(=O)N2CCCCC2)c1 | 3164 | 3.7 | 5.3 | -4.1 | 0.8 | -0.9 | ·
C=C(c1ccccc1)c1ccccc1N | 4399 | 0.4 | 14.0 | 8.2 | 8.1 | -48.2 | 2.9
O=C1CC(NNc2ccccc2)C(=O)N1c1ccc(N2CCCCC2)cc1 (stereo unspecified) | 8608 | 3.6 | 3.5 | 7.7 | 2.2 | -13.5 | ·
CSc1nc2ccc(Br)cc2[nH]1 | 4612 | 2.3 | 9.4 | 0.6 | 1.9 | -16.5 | 15.9
CCCCN1C(=O)C(O)(CC(=O)c2c(C)coc2C)c2ccccc21 (stereo unspecified) | 2647 | -6.5 | -3.6 | 6.7 | 2.1 | -29.1 | 5.9
COc1ccc(C2/C(=C(\O)c3ccc4c(c3)OCCO4)C(=O)C(=O)N2CCCn2ccnc2)cc1 (stereo unspecified) | 6412 | 8.5 | 2.1 | -6.4 | 2.3 | -14.9 | 10.1
c1ccc2[nH]c(-c3ccncc3)nc2c1 | 4696 | 8.1 | 3.1 | -3.7 | 3.3 | -17.7 | 6.7
Additional results:
SMILES | Bead autofluor | ugtP null kill | Mtb hypoxia rep | Mtb hypoxia rep growth | Sa RN4220 lethal | PrP UTR inh | BJeLR viability
Cc1ccc(CC(=O)Nc2nc3c(s2)CCCC3)cc1 | 4051 | 0.4 | -1.0 | 1.3 | -2.2 | -25.4 | 23.3
COc1ccccc1NC(=O)CCSc1nnc(-c2ccc(O)cc2)o1 | 2571 | -0.6 | 7.5 | 2.5 | 8.3 | -6.0 | 0.0
Cc1ccc(-n2nc3c(=O)n(CC(=O)NCc4ccc(C)o4)nc(C)c3c2C)cc1 | 4943 | · | · | · | · | -8.3 | 6.5
CCn1cc(C(=O)NCC2CCCO2)c(=O)c2cc(S(=O)(=O)N3CCCCC3)ccc21 (stereo unspecified) | 5790 | 6.2 | 4.8 | 2.1 | 1.3 | -8.6 | -10.1
O=C(O)c1cccc(-c2ccc3c(c2)OCO3)c1 | 4064 | 21.1 | 6.9 | 7.5 | 1.9 | -29.7 | 5.3
CCOC(=O)/C(=N\Nc1ccccc1)S(=O)(=O)c1ccccc1 | 23295* | · | · | · | · | -37.6 | 10.0
Cc1ccc(C(=O)Nc2ccc(OCc3ccccc3)cc2)s1 | 3092 | 6.4 | 1.4 | 2.6 | 2.4 | -37.3 | 4.6
COc1ccc(S(=O)(=O)N2CCCCC2)cc1NC(=O)c1ccc(CS(C)(=O)=O)cc1 | 6530 | -2.3 | -0.9 | -2.7 | 0.5 | -1.5 | ·
CCCCSc1nnc(-c2ccc(NC(=O)CC)cc2)n1C | 9810 | -3.1 | 3.6 | 6.0 | 2.7 | -18.9 | 7.0
C=CC1c2cccc(C)c2N(S(=O)(=O)c2ccc(C)cc2)C(c2ccccc2)C1(C#N)S(=O)(=O)c1ccccc1 (stereo unspecified) | · | 15.9 | -3.0 | 9.9 | 18.8 | · | ·
CCOc1cc(C(=S)N2CCCC2)ccc1OC(=O)Cc1ccc(F)cc1 | 2054 | 1.8 | 7.1 | 8.3 | 2.1 | -11.4 | -1.7
COc1ccc(C=NNc2nc(Nc3ccccc3)nc(N3CCCC3)n2)cc1[N+](=O)[O-] | · | -16.6 | -7.9 | -5.4 | 22.0 | · | ·
CC(=NNC(=O)c1nnn(-c2nonc2N)c1-c1ccccc1)c1cccnc1 | · | 4.5 | -7.0 | 6.8 | 4.3 | · | ·
CC(C)Oc1ccccc1C=NNC(=O)C1CCCC1 | · | 4.4 | 3.4 | 4.9 | 1.7 | · | ·
O=C(O)c1cccc(N/N=C/c2cccc3ccccc23)c1 | 4054 | · | · | · | · | 34.8 | -6.0

One compound at a time, from the list above.
O=C(O)c1cccc(N/N=C/c2cccc3ccccc23)c1 is listed with Bead autofluor = 4054; ugtP null kill = ·; Mtb hypoxia rep = ·; Mtb hypoxia rep growth = ·; Sa RN4220 lethal = ·; PrP UTR inh = 34.8; BJeLR viability = -6.0
CCOC(=O)/C(=N\Nc1ccccc1)S(=O)(=O)c1ccccc1 is listed with Bead autofluor = 23295*; ugtP null kill = ·; Mtb hypoxia rep = ·; Mtb hypoxia rep growth = ·; Sa RN4220 lethal = ·; PrP UTR inh = -37.6; BJeLR viability = 10.0
CCn1cc(C(=O)NCC2CCCO2)c(=O)c2cc(S(=O)(=O)N3CCCCC3)ccc21 (stereo unspecified) is listed with Bead autofluor = 5790; ugtP null kill = 6.2; Mtb hypoxia rep = 4.8; Mtb hypoxia rep growth = 2.1; Sa RN4220 lethal = 1.3; PrP UTR inh = -8.6; BJeLR viability = -10.1

Compound activity from PubChem BioAssay.
